PK Bst = Pyruvate Kinase | partly purified Bacillus stearothermophilus pyruvate kinase, luminescence ATP production; ribose 5-phosphate activator present at AC10 | Potency, µM | actives 1.2% (n = 51,000); in the data active means potency below about 11 µM; inconclusive means mostly about 12 µM to 25 µM; inactive means weaker than that;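 the screen sought inhibitors and activators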;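 also: potency is read from the fitted curve at half-maximal effect; scaled between full activation by ribose 5 phosphate and full inhibition by luteolin; about four in five hits inhibit and the cells do not say which; series up to 57 µM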
TsaE inh = qHTS Assay for Inhibitors of YjeE; tRNA threonylcarbamoyladenosine biosynthesis protein TsaE (Escherichia coli (strain …; purified YjeE, fluorescence polarisation of a bound ADP probe; Potency, µM; actives 0.05% (n = 71,000); AID 605, 2007; active = well fitted falling curve; inconclusive = weaker or top-dose-only fall, or a rising curve; inactive = flat or poorly fitted curve;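 also: top concentration of the series not given in the record; excess ADP was the control for the full effect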
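Fluorescence polarization of a BODIPY Texas Red–ADP probe (2 uM) bound to purified YjeE (10 uM) was read after 15 min room-temperature incubation with compounds. Loss of polarization marks inhibitors; ADP serves as titrated control.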
* = called active by the depositor; i = inactive; ? = inconclusive; nt = no result given. These rows are one share of the data; count on the stated rates, not on these rows.

| TsaE inh | PK Bst | smiles |
| --- | --- | --- |
| i | >57 | Cc1ccc(C)c(OCC(=O)Nc2ccc3c(c2)OCO3)c1 |
| i | >57 | COc1ccc(N2CCN(C(c3cccs3)C(C)NS(=O)(=O)c3ccccc3)CC2)cc1 (stereo not given) |
| i | >57 | CCOC(=O)c1ccccc1NC(=O)CSc1nnc(COc2ccccc2C)n1C |
| nt | >26 | CC1(C)NC(=O)N(CC(O)COc2cc3ccccc3cc2C(=O)N2CCCCC2)C1=O (stereo not given) |
| i | >57 | COCCOC(=O)C1=C(C)N=C2SCCC(=O)N2C1c1cc(Br)ccc1OC (stereo not given) |
| i | nt | COc1ccc(-c2csc(NCc3ccco3)n2)cc1C |
| i | >57 | CN(C)c1ccc(-c2nnn(CC(=O)N3c4ccccc4CCc4ccccc43)n2)cc1 |
| i | nt | Cc1ccccc1-c1cncnc1N1CCNCC1 |
| i | >11 | CCOc1ccccc1NC(=O)CCS(=O)(=O)c1cccc2nonc12 |
| i | >57 | COC(=O)c1ccccc1NC(=O)N1CSC[C@H]1C(=O)OC |
| i | nt | Cc1ccc([N+](=O)[O-])c(N)c1 |
| i | nt | CC(C)CCNC(=O)c1ccc2c(c1)N(Cc1ccccc1)C(=O)CS2=O (stereo not given) |
| i | nt | CCOc1ccccc1O[C@@H](c1ccccc1)[C@@H]1CNCCO1 |
| i | >57 | Cc1ccc2[nH]c(=O)c(CN(Cc3ccco3)C(=O)c3cccs3)cc2c1 |
| i | nt | O=C(CCSc1ccccc1)NCCSc1ccccn1 |
| i | >57 | CCOC(=O)c1ccccc1NC(=O)COC(=O)c1ccc(C)c(S(=O)(=O)N2CCOCC2)c1 |
| i | >57 | CCc1c(C)c2cc(Cl)c(O)c(CN(C)C)c2oc1=O |
| nt | >26 | COC(=O)C(NC(=O)c1ccco1)(Nc1nc(C)cs1)C(F)(F)F (stereo not given) |
| i | >57 | CCOc1ncccc1C(=O)NCC1COc2ccccc2O1 (stereo not given) |
| i | >11 | Cc1cc(-c2nnco2)c(C)n1-c1ccc(F)cc1 |
| i | >57 | O=C(CCn1nc(-c2ccccc2)ccc1=O)N1CCN(c2ccccn2)CC1 |
| i | >57 | CN(c1nc2c(c(=O)n(C)c(=O)n2C)n1CC(=O)c1ccccc1)C1CCCCC1 |
| i | nt | C[C@@H]1O[C@H](O[C@@H]2[C@H](C)O[C@H](O[C@@H]3[C@H](C)O[C@H](O[C@H]4CC[C@]5(C)[C@@H](CC[C@@H]6[C@H]5C[C@@H](O)[C@]5(C)[C@@H](C7=CC(=O)OC7)CC[C@]65O)C4)C[C@@H]3O)C[C@@H]2O)C[C@H](O)[C@@H]1O |
| i | >57 | CN(C(=O)c1ccccn1)c1nnc(-c2cccnc2)s1 |
| i | >57 | CC(C)(C)n1nnnc1C(c1cccnc1)N1CCN(C2CCCCC2)CC1 (stereo not given) |
| i | nt | CCCCN1C(=O)C2C(c3ccc(OC)cc3O)NC(CC(C)C)(C(=O)O)C2C1=O (stereo not given) |
| nt | 3* | Nc1ccc2oc(-c3ccccc3Cl)nc2c1 |
| i | >57 | COc1ccc(-n2c(C)cc(C(=O)COc3ccc(-n4cnnn4)cc3)c2C)cc1 |
| i | >57 | O=C1c2ccccc2C(=O)N1CCCCSc1nnc(-c2ccc(OC(F)F)cc2)o1 |
| i | >57 | CCOC(=O)c1c(C)[nH]c(C)c1C(=O)COc1ccc(NC(=O)c2ccco2)cc1 |
| i | >57 | Cc1ccc2nc(CSc3nnc(-c4ccco4)o3)cc(=O)n2c1 |
| i | nt | CNC(=O)[C@@]1(C)C=C[C@@H](Cc2ccccc2)N1C(=O)OC |
| i | >57 | Cc1cc(C(=O)CN2C(=O)NC(Cc3c[nH]c4ccccc34)C2=O)c(C)n1C (stereo not given) |
| i | >57 | COc1ccc(N2CCN(CCCNC(=O)CCCn3c(=O)[nH]c4ccsc4c3=O)CC2)cc1 |
| i | >57 | N#CN=C(N)c1ccccc1 |
| nt | >26 | Cc1cc(C)c(C#N)c(SCC(=O)N2CCN(Cc3ccccc3)CC2)n1 |
| i | nt | CC1CCN(C(=O)CSc2nnc(-c3ccco3)o2)CC1 |
| i | >57 | CCOc1ccc(N2C(=O)CCC2=O)cc1 |
| i | >57 | COC(=O)c1ccccc1NC(=O)CN(C1CCCCC1)S(C)(=O)=O |
| i | >57 | COC(=O)CNC(=O)CNC(=O)Nc1ccccc1 |
| i | >57 | CCOCCCn1c(SCC(=O)NC(C)C)nc2ccccc2c1=O |
| i | nt | c1ccc2c(c1)oc1c(N3CCN(Cc4ccc5c(c4)OCO5)CC3)ncnc12 |
| i | >57 | CCN(CC)S(=O)(=O)c1cccc(-c2nnc(SCCCC(=O)c3ccccc3)o2)c1 |
| i | >57 | CCOC(=O)C1C(=O)OC(C)(C)C1C(C)C(=O)c1ccc(OC)cc1 (stereo not given) |
| i | >57 | COc1ccccc1-n1c(SCC(=O)Nc2ccc3c(c2)OCO3)nc2c(c1=O)SCC2 |
| i | >57 | Cc1cc(NC(=O)COc2ccc3oc4ccccc4c3c2)no1 |
| i | >57 | O=C(Nc1ncnc2c1ncn2C1OC(COC(=O)c2ccccc2)C(F)C1O)c1ccccc1 (stereo not given) |
| i | >57 | O=c1cc(N2CCC3(CC2)OCCO3)[nH]c(=O)n1-c1ccc(Cl)cc1 |

Entries shown so far containing a cyano group, in the order listed:
| TsaE inh | PK Bst | smiles |
| --- | --- | --- |
| i | >57 | N#CN=C(N)c1ccccc1 |
| nt | >26 | Cc1cc(C)c(C#N)c(SCC(=O)N2CCN(Cc3ccccc3)CC2)n1 |

More entries
| TsaE inh | PK Bst | smiles |
| --- | --- | --- |
| i | nt | COc1ccc(CNC(=O)c2nnn(Cc3ccc(OC)cc3)c2N)cc1 |
| i | nt | O=c1nc2s/c(=C\c3ccco3)c(=O)n2nc1Cc1ccccc1 |
| i | >57 | CCOC(=O)Nc1ccc(C(=O)NCC2CCCO2)cc1 (stereo not given) |
| i | i | COc1ccc(-c2cc(C(=O)NCCN3CCOCC3)c3ccccc3n2)cc1 |
| i | >57 | CSc1ccccc1NS(=O)(=O)c1ccccc1 |
| i | >57 | CN(Cc1ccccc1)C(=O)CN(C1CCCCC1)S(C)(=O)=O |
| i | nt | Cc1nc2sc(C(c3cccs3)N3CCOCC3)c(O)n2n1 (stereo not given) |
| i | nt | Cc1nn(C)c(C)c1S(=O)(=O)N1CCCC(C(=O)NCCc2ccc(Cl)cc2)C1 (stereo not given) |
| i | >57 | COc1ccc(C)cc1NC(=O)COCC(=O)O |
| i | nt | CC(=O)Nc1ccc(NS(=O)(=O)Cc2ccccc2)cc1 |
| i | >57 | COc1ccc(C2(NC(C)=O)CCN(C(=O)c3ccco3)CC2)cc1 |
| i | >57 | CC1CC2(C)Oc3ccccc3C3OCC1(CO)C(C)C32 (stereo not given) |
| i | >57 | Cc1ccccc1-n1c(=O)c2ccccc2n2c(=O)[nH]nc12 |
| i | >57 | CC1(C)CC(=O)C2=C(C1)OC(N)=C(C#N)C2c1cccc(OC(=O)c2ccco2)c1 (stereo not given) |
| i | >57 | CCc1cc(=O)oc2c(C)c(O)c(CN(C)C)cc12 |
| i | >57 | CCN(CC)S(=O)(=O)c1cccc(-c2nnc(SCCOc3ccccc3)o2)c1 |
| i | >57 | O=C1OCC(c2ccccc2)=C1c1ccc(S(=O)(=O)N2CCOCC2)s1 |
| i | >57 | N#Cc1nc(-c2ccco2)oc1NCCCN1CCOCC1 |
| i | >57 | Cc1ccc(NC(=O)NC2CCCCC2)cc1Cl |
| i | nt | CS(=O)(=O)N1CCc2cc(-c3csc(NCC4CCCO4)n3)ccc21 (stereo not given) |
| i | >57 | COCCN1C(=O)c2oc3cc(C)c(C)cc3c(=O)c2C1c1ccc(O)cc1 (stereo not given) |
| i | nt | COC(=O)c1ccc(NCC(=O)c2ccccc2)cc1 |
| i | nt | CCCCCCN(C(=O)CCCCCN1C(=O)NC(c2ccc(Cl)cc2)C(C(=O)OCc2ccccc2)=C1C)C(C(=O)NCCCC)c1ccc(OCC(=O)OC)c(C(=O)OC)c1 (stereo not given) |
| i | nt | CC(=O)NC1(c2cccc(F)c2)CCN(C(=O)Nc2ccc(C#N)cc2)CC1 |
| i | nt | COCC(=O)N1CCC2(CCCN(Cc3nccs3)C2)CC1 |
| i | nt | Nc1nc(N)nc(CC(=O)O)n1 |
| i | >57 | Cc1cc(NC(=O)CSc2nnc(C3CC3)n2N)no1 |
| i | >57 | Cc1ccccc1CSc1ncc(C#N)c(N)n1 |
| i | >57 | CC(COc1cccc2ccccc12)CN1CCN(C)CC1 (stereo not given) |
| i | >57 | O=C(CSc1ncn[nH]1)Nc1ccc(Cl)c(Cl)c1 |
| i | nt | Cc1cc(Oc2ccccc2)nc(-c2ccccc2)n1 |
| i | >57 | COc1cccc(NS(=O)(=O)c2ccc(OC)c(OC)c2)c1 |
| i | nt | Cc1c(NC(=O)c2cnn3c(C(F)(F)F)cc(-c4ccco4)nc23)c(=O)n(-c2ccccc2)n1C |
| i | >57 | CN1C(=O)SC(Nc2ccccc2C(=O)O)C1=O (stereo not given) |
| i | >57 | Cc1cc(-n2c(C)cc(C(=O)CSc3nnc4sc5ccccc5n34)c2C)no1 |
| i | >57 | CCCCCOC(=O)C1=C(C)N(C)C(=O)NC1c1cc(Br)c(O)c(OC)c1 (stereo not given) |

Entries of single compounds, looked up by structure.
CN1C(=O)SC(Nc2ccccc2C(=O)O)C1=O (stereo not given) is listed with TsaE inh = i; PK Bst = >57
O=C(CSc1ncn[nH]1)Nc1ccc(Cl)c(Cl)c1 is listed with TsaE inh = i; PK Bst = >57

Following part
| TsaE inh | PK Bst | smiles |
| --- | --- | --- |
| i | >57 | CCSc1nc(=S)n(CC)c(C)c1C(C)=O |
| i | nt | Cc1cc(C(F)(F)F)nc(SCC(=O)Nc2cc(C)on2)n1 |
| i | >57 | CCOC(=O)c1sc(NC(=O)CCn2nnc3ccccc32)c(C(=O)OCC)c1C |
| i | >57 | CCCNC(=O)c1c(N)n(-c2cccc(OC)c2)c2nc3ccccc3nc12 |
| i | nt | COc1cccc(N2C(=O)C3CCCN3C2c2ccc(N(C)C)cc2)c1 (stereo not given) |
| i | nt | CC1(C)CC(=O)C2=C(C1)OC(N)=C(C#N)C2Cc1ccccc1 (stereo not given) |
| i | >57 | CC1CCC(C(C)C)C(OC(=O)COC(=O)c2ccc(=O)[nH]c2)C1 (stereo not given) |
| i | >57 | N#CC1=C(N)Oc2n[nH]c(-c3ccccc3)c2C1c1cccnc1 (stereo not given) |
| i | nt | Cc1csc(NC(=O)CSc2nc(C)nc3c2c(=O)n(C)c(=O)n3C)n1 |
| i | >57 | CC1CCCC(C)N1C(=O)CSc1nnc(C2CCCCC2)o1 (stereo not given) |
| i | >57 | CC1=C/C(=C\c2ccc3c(c2)OCO3)C(=O)S1 |
| i | >57 | O=C1CSC(c2ccccc2F)N1c1cc(Cl)ccc1O (stereo not given) |

Some of the entries so far, with values under each structure.
Values run as follows: TsaE inh | PK Bst
CC1(C)CC(=O)C2=C(C1)OC(N)=C(C#N)C2Cc1ccccc1 (stereo not given)
 : i | nt
CC1CCC(C(C)C)C(OC(=O)COC(=O)c2ccc(=O)[nH]c2)C1 (stereo not given)
 : i | >57
N#CC1=C(N)Oc2n[nH]c(-c3ccccc3)c2C1c1cccnc1 (stereo not given)
 : i | >57

(listing goes on)
| TsaE inh | PK Bst | smiles |
| --- | --- | --- |
| i | nt | CCOC(=O)N1CCN(C(=O)c2ccc3c(c2)N(CC)CCS3)CC1 |
| i | >57 | C=CCn1c(SCC(=O)Nc2sc(C)c(C)c2C(=O)OCC)nnc1-c1sc(N)nc1C |
| i | i | COC(=O)c1ccccc1NS(=O)(=O)c1ccc(O)c(C(=O)O)c1 |
| nt | >11 | N#C/C(C(=O)N1CCOCC1)=C1/SC(Cc2ccccc2)C(=O)N1c1ccccc1 (stereo not given) |
| nt | >26 | Cc1ccc(C)c(OCc2nnc(NC(=O)c3ccco3)s2)c1 |
| i | nt | COc1cccc(-c2nc(NCc3ccccc3)c3ccccc3n2)c1 |
| i | >57 | COc1cc2[nH]c3c(N4CCC(C(N)=O)CC4)ncnc3c2cc1OC |
| i | >57 | CC1CCCCN1C(=O)Nc1cccc(Cl)c1 (stereo not given) |
| i | nt | CCOc1ccc(C2NC(=O)c3ccccc3O2)cc1 (stereo not given) |
| i | >57 | O=C(c1noc2c1CCCC2)N1CCN(c2ccc(F)cc2)CC1 |
| i | >57 | O=C(Nn1c(C2CCC2)nc2ccccc2c1=O)C1CCC1 |
| i | >57 | C=CCNC(=O)c1ccc(OC)cc1OC |
| i | >57 | O=P1(c2ccccc2)C=Cn2c1cc1c2CCCC1 (stereo not given) |
| i | >57 | Cc1cc(NC(=O)Cn2nnc3sc4c(c3c2=O)CCC(C(C)(C)C)C4)no1 (stereo not given) |
| i | >57 | Cc1ccc(-n2c(SCC(N)=O)nnc2-c2ccccn2)cc1 |
| i | >57 | CN(C)c1nc(C(=O)Nc2ccccc2)nc(N(C)C)n1 |
| i | nt | CC1(C)CCC2=C(O1)c1ccccc1C(=O)C2=O |
| i | nt | O=C1CCc2cc(S(=O)(=O)N3CCC(C(=O)NC4CCCc5ccccc54)CC3)ccc2N1 (stereo not given) |
| i | >57 | CSc1nnc(-c2cnccn2)n1Cc1ccccc1 |
| i | >57 | COc1ccc2c(c1)C1(Nc3ccccc3-c3nc4ccccc4n31)C(=O)N2C (stereo not given) |
| i | >57 | COc1ccc(NC(=O)CSc2nnc(-c3ccco3)n2C)cc1 |
| ? | nt | CN(N=O)c1ccc(/C=C\c2ccnc3ccccc23)cc1 |
| nt | >26 | CCCC(=O)Nn1cnc2c(c1=O)C1(CCCC1)Cc1ccccc1-2 |
| i | >57 | Cc1cc(F)ccc1S(=O)(=O)Nc1ccccc1C(=O)Nc1ccc2[nH]c(=O)[nH]c2c1 |

Compound activity: PubChem, National Center for Advancing Translational Sciences (NCATS)
